Bioassay records from PubChem.
Biofilm kill mix: mixture kills Candida albicans biofilm cells; 0.02% of 120,000 active; AID 1242; C. albicans biofilm persisters + clotrimazole, fluorescence viability; primary screen in compound mixtures of four per well; inhibition, % at 7.6 µM;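 active means inhibition above 30.3% in the primary screen of four-compound pools, then above 30% when the compound was retested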;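 further: compounds exposed to preformed 24 h biofilms for 48 h; the number belongs to the whole pool; some results filed as inactive read as strong as hits; inactives centre near 12; 0% = biofilm with clotrimazole alone and 100% = kill control; retested singly at about 60 µM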
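Test system: C. albicans biofilms. Buffer or medium: RPMI/MOPS medium, pH 7.0. Timing: 48 h compound exposure at 37 °C. Technique: Alamar Blue fluorescence. Evaluation: percent inhibition of biofilm viability.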
Starred values were filed as active, the others as inactive. These rows are one share of the data (hit frequency here may not be typical).

Structure	Biofilm kill mix
O=C(NCc1ccc2[nH]c3c(c2c1)CCCC3)c1ccc(S(=O)(=O)N2CCCCC2)cc1	18
COc1cccc(N2CN(C3CCCCC3)CNC2=S)c1	8
CCn1cc(C(=O)N2CCN(c3ccc(C(C)=O)cc3)CC2)c2cc(OC)c(OC)cc2c1=O	2
CC(O)Cn1cnc2c1c(=O)n(C)c(=O)n2C (centres undefined)	20
COc1nc(-c2cnccn2)sc1C	14
CCC(=O)NC(c1cccc([N+](=O)[O-])c1)c1c(O)ccc2ccccc12 (centres undefined)	2
COc1ccccc1NC(=O)N1CCC(c2nc3ccccc3o2)CC1	8
CCNc1nc(Oc2ccc(C(=O)OCC)cc2)nc(N2CCOCC2)n1	15
COc1ccc(CN2CCNC(=O)C2CC(=O)NCc2ccc(C)s2)c(OC)c1 (centres undefined)	6
COc1ccc(/C=C/C(=O)NCC2COc3ccccc3O2)cc1OC (centres undefined)	7
Cc1[nH]c2ccccc2c1/C=N/Nc1ccc([N+](=O)[O-])cc1	8
O=[N+]([O-])c1cnc2ccccc2c1	18

Sorted by count of non-hydrogen atoms (highest first): 4 of the compounds above
Structure	Biofilm kill mix
COc1ccc(/C=C/C(=O)NCC2COc3ccccc3O2)cc1OC (centres undefined)	7
Cc1[nH]c2ccccc2c1/C=N/Nc1ccc([N+](=O)[O-])cc1	8
CC(O)Cn1cnc2c1c(=O)n(C)c(=O)n2C (centres undefined)	20
COc1nc(-c2cnccn2)sc1C	14

Carrying on.
Structure	Biofilm kill mix
Cc1ccc(C2=NN(C(=O)CCC(=O)O)C(c3cn(-c4ccccc4)nc3-c3ccc(C)cc3)C2)cc1 (centres undefined)	6
O=C(CN1CCCCCC1)NCc1ccccc1	14
Cc1nnc(SCC(=O)N2CCCCCC2)n(N)c1=O	10
CC(C)C[C@H](NC(=O)c1nc[nH]c1C(=O)NCc1ccccc1)C(=O)OCc1ccccc1	16
O=C(Nc1ccc(N2CCCC2)c(Cl)c1)c1ccccc1[N+](=O)[O-]	8
CC(C)C[C@H](NC(=O)c1[nH]cnc1C(=O)N[C@@H](C)C(=O)OC(C)(C)C)C(=O)OC(C)(C)C	17
Cc1csc(SCC(=O)NCc2cccc(Cl)c2)n1	-4
O=C1C=C(O)c2c(O)cccc2C1=O	18
COc1ccc(C(C)NC(=O)c2ccccc2Br)cc1OC (centres undefined)	7
C[C@@]12CCC=C[C@H]1[C@H](c1ccc(F)c(/C=C/c3ccccc3)c1)N(Cc1ccccc1)C2=O	10
c1ccc(CN2CCN(Cc3cn4cccnc4n3)CC2)cc1	13
COc1ccc(CCNC(=O)COc2ccc([N+](=O)[O-])cc2)cc1	-20

More results
Structure	Biofilm kill mix
Cc1cccc(C)c1NC(=O)CSc1nnc(NC(=O)c2ccccc2C(=O)O)s1	27
O=C(COC(=O)c1ccccc1Cl)NCCC1=CCCCC1	14
CCOC(=O)c1ccc(S(=O)(=O)NCCN(CC)CC)cc1	30
CC1=NN(C(=O)c2ccc(C)o2)C(O)(c2ccccc2)C1 (centres undefined)	7
COc1ccc(NS(=O)(=O)c2ccc(O)c(NC(=O)c3ccc(S(=O)(=O)N4CCCC4)cc3)c2)cc1	14
O=C(Nc1ccccc1NS(=O)(=O)c1ccc(F)cc1)C1CCC1	12
COc1ccc(NC(=O)c2c(C)noc2-c2snnc2C)cc1	17
COc1ccc(CN(C(=O)CCC(=O)N2CCCCC2)c2nccs2)cc1OC	-4
Brc1ccc(C=Nc2ccc(Nc3ccccc3)cc2)s1	9
CSc1nc2c(c(=O)[nH]1)C(c1ccccc1)C1=C(CC(C)(C)CC1=O)N2 (centres undefined)	11
COc1ccc2c(CC(=O)Nc3ccc(OC)c(S(=O)(=O)N4CCOCC4)c3)coc2c1	10
COc1ccc(CNS(=O)(=O)c2ccc(F)c(C(=O)Nc3ccc(OC)cc3)c2)cc1	11

Additional results.
Structure	Biofilm kill mix
Cc1ccc(C(=O)NC(=S)Nc2ccccc2C(F)(F)F)c(C)c1	1
CCOC(=O)/C(O)=C(\C#N)c1nc2ccccc2[nH]1	-4
CCOC(=O)c1ccccc1NC(=S)N1CCN(C2CCCCC2)CC1	3
CCOC(=O)c1sc(S(C)(=O)=O)c2c1CC(C)(C)C/C2=N/O	24
CC(C)CCN1CCN(Cc2cccn2-c2cccnc2)CC1CCO (centres undefined)	22
N#Cc1c2c(c[nH]c1=O)CCN2Cc1ccccc1	-2
Cc1c(C(=O)Nc2ccc(F)cc2)cn2c(nc3ccccc32)c1C#N	14
COc1ccc(C2CN=NC23CCc2ccccc2C3=O)cc1 (centres undefined)	9
CCOC(=O)C(=Cc1ccccc1OC)C(=O)OCC	2
CCOC(=O)CN1C(=O)SC(Nc2ccc(C)cc2)C1=O (centres undefined)	19
Cc1cc(SC(C)C(=O)NCC(=O)Nc2ccc(F)c(F)c2F)nc2ccccc12 (centres undefined)	14
Cc1ccc(CN=c2c([N+](=O)[O-])nn(-c3cccc(C)c3)n2O)cc1	7

(listing goes on)
Structure	Biofilm kill mix
CC(=O)N1N=C(N)SC12CCCC2	23
Nc1nc2cc(S(=O)(=O)NC3=NCCCCC3)ccc2s1	19
C[n+]1ccc(/C=C/c2ccccc2O)c2ccccc21	12
COc1ccc(-n2nc([N+](=O)[O-])c(=NC3CCN(Cc4ccccc4)CC3)n2O)cc1	8
CC1CN(C2=NC(=O)/C(=C/c3ccncc3)S2)CC(C)O1 (centres undefined)	24
COc1ccc(S(=O)(=O)N2CCCCC2)cc1NC(=O)c1ccc2ccccc2n1	18
Cc1nn(-c2ccccc2)c2c1cc1c(=O)n(C)c(=O)nc-1n2-c1ccccc1F	31
O=C(/C=C/c1ccc2c(c1)OCO2)Nc1nc(-c2ccc(F)cc2F)cs1	14
Cc1nc2ccccn2c1C(=O)NN=C1CCCC1	6
Nc1nnc(SCC(=O)Nc2cccc(S(N)(=O)=O)c2)s1	13
O=C(NCCc1ccc(Cl)cc1)c1n[nH]c2ccccc12	19
CC(NC(=O)c1ccc([N+](=O)[O-])cc1[N+](=O)[O-])c1ccc(-c2ccccc2)cc1 (centres undefined)	11

The listing continues:
Structure	Biofilm kill mix
COC(=O)c1cccc([N+](=O)[O-])c1CS(=O)(=O)c1ccc(C)cc1	14
CCN1CCCC1CNC(=O)C(=O)NC (centres undefined)	15
CC(OC(=O)c1cccnc1)C(=O)NCc1ccc2c(c1)OCO2 (centres undefined)	14
COc1ccc(C)cc1NCc1cc(=O)oc2cc(-c3ccccc3)c(O)cc12	9
Cc1nc(C(C)N(C)Cc2c(C(=O)N3CCCCC3)nc3c(C)cccn23)c(C)s1 (centres undefined)	12
CC(C)c1ccc(NC(=O)c2cccc(Br)c2)cc1	16
O=C(Nc1ccc(Cl)c([N+](=O)[O-])c1)Nc1nc2ccccc2s1	18
O=C1Nc2ccc(Cl)cc2C(=O)C1(F)c1ccccc1 (centres undefined)	21
Cc1ccc(NC(=O)COC(=O)CCc2nc3ccccc3c(=O)[nH]2)c(Br)c1	9
COCc1nnc(NC(=O)c2ccc(S(=O)(=O)N3CCCc4ccccc43)cc2)o1	4
CC(C)(C)[C@@H]1C=C(C(=O)Nc2ccccc2)O[C@H](OCc2ccc(CO)cc2)C1	10
N#CCSc1n[nH]c2nc3c(c(=O)n12)C1(CCCCC1)Cc1ccccc1-3	7

The last seven compounds of the section before are carried over, then new ones follow:
Structure	Biofilm kill mix
CC(C)c1ccc(NC(=O)c2cccc(Br)c2)cc1	16
O=C(Nc1ccc(Cl)c([N+](=O)[O-])c1)Nc1nc2ccccc2s1	18
O=C1Nc2ccc(Cl)cc2C(=O)C1(F)c1ccccc1 (centres undefined)	21
Cc1ccc(NC(=O)COC(=O)CCc2nc3ccccc3c(=O)[nH]2)c(Br)c1	9
COCc1nnc(NC(=O)c2ccc(S(=O)(=O)N3CCCc4ccccc43)cc2)o1	4
CC(C)(C)[C@@H]1C=C(C(=O)Nc2ccccc2)O[C@H](OCc2ccc(CO)cc2)C1	10
N#CCSc1n[nH]c2nc3c(c(=O)n12)C1(CCCCC1)Cc1ccccc1-3	7
CCOc1ccc(N2C(=O)C3ON(C)C(c4ccc([N+](=O)[O-])cc4)C3C2=O)cc1 (centres undefined)	20
CCOP(=O)(OCC)c1nc(-c2ccc(Cl)cc2)oc1NCc1ccccc1	8
O=C1CCN(S(=O)(=O)c2ccccc2)CCN1CCOCc1ccc(C(F)(F)F)cc1	18
c1ccc(C2CC(c3cccs3)Nc3nnnn32)cc1 (centres undefined)	9
COc1cccc(NC(=S)Nc2ccc(O)cc2)c1	18
CCN(CC)c1ccc(/C=N/NC(=O)CCC(=O)NCc2ccccc2)c(O)c1	11
Cc1ccc(C(=O)O/N=C(\N)c2cccnc2)cc1[N+](=O)[O-]	10
CCCn1c(=O)[nH]c(=O)c2c(C(=O)OCC)cc(-c3cccs3)nc21	10
CC(C)CNC(=O)C1CCN(c2ccc(S(=O)(=O)N3CCOCC3)cc2[N+](=O)[O-])CC1	16
CC(C)c1ccc(/C=N/NC(=O)C(=O)NCCCN2CCOCC2)cc1	12
CN1CCc2c1nc1ccccc1c2N=C1CCCN1Cc1ccccc1	20
CC(=O)N1N=C(c2ccc(C)o2)CC1c1cccc(F)c1 (centres undefined)	8

(next part)
Structure	Biofilm kill mix
NC(=O)NC(=O)CSc1ccccc1	14
CN(C)N1C(N)=C(C#N)C(c2ccsc2)C2=C1CC(C)(C)CC2=O (centres undefined)	2
Cc1cnc(NC(=O)CC2CCCC2)s1	15
O=C(c1cccs1)N1CCN(Cc2cccc([N+](=O)[O-])c2)CC1	-1
COc1ccc(-c2nn(-c3ccccc3)cc2CN(C)CCn2ccnc2C)c(F)c1	0
O=C(Nc1ccc(Br)cc1)Nc1ccccc1F	13
COC(=O)Cc1[nH]n(-c2ccccc2)c(=O)c1C(C)=Nc1ccccc1	12
CCc1ccc(/C=C2\Oc3c(ccc(O)c3CN3CCN(CCO)CC3)C2=O)cc1	9
Cn1cnnc1Sc1nc([N+](=O)[O-])nn1C	28
CC1(C)CC(=O)C=C(NCCN2CCN(C(=S)Nc3ccccc3)CC2)C1	10
CCCCN(CC)CCCNC(=S)Nc1ccc2nc(N3CCN(CC)CC3)cc(C)c2c1	13
CC(=O)N(CCC(c1ccco1)C(C)C)Cc1ccc(Cl)cc1 (centres undefined)	21

Carrying on.
Structure	Biofilm kill mix
CCOc1cc(N2CCOCC2)c(OCC)cc1NC(C)C(=O)N1CCC(C)CC1 (centres undefined)	26
COc1ccc(-c2noc(-c3ccc(Cl)cc3[N+](=O)[O-])n2)cc1OC	9
Cc1ccccc1N/C(SCc1ccc(Cl)cc1)=C(/C#N)C(N)=O	4
Cc1ccc(/C=C(\NC(=O)c2ccccc2)C(=O)NCCc2ccccn2)o1	0
Cc1ccc(S(=O)(=O)NCCSc2ccccc2)cc1[N+](=O)[O-]	-1
CCC(=O)Nc1sc(Cc2ccc3c(c2)OCO3)c(C)c1C(N)=O	24
COc1ccccc1-c1ccc(SCc2cccc(C)c2)nn1	7
Cc1nc(CSc2n[nH]c(=O)n2-c2ccccc2)cs1	10
C[C@H](NC(=O)OC(C)(C)C)C(=O)N/N=C/c1cccc2nccnc12	18
CC1=NN(c2ccc(Cl)cc2)C(=O)C1C(c1cccc(O)c1)c1c(C)[nH]n(-c2ccc(Cl)cc2)c1=O (centres undefined)	12
Cc1cc2c(cc1C)[n+](C)cn2CC(O)COCC1CC=CCC1 (centres undefined)	-2
CN(C(=O)c1c(Cl)cnn1C)C12CC3CC(CC(C3)C1)C2	22

(list continues)
Structure	Biofilm kill mix
CC1Cc2cc(/C=C3/SC(=S)NC3=O)ccc2O1 (centres undefined)	0
CCCCN1C=CC(=C2C(=O)c3ccccc3C2=O)C=C1	1
COc1ccccc1N1CCN(C(=O)C2CCN(S(=O)(=O)c3ccc(C)cc3)CC2)CC1	6
COc1cc(/C=C2\C(=N)N3N=CSC3=NC2=O)cc(Br)c1OC(=O)c1ccco1	22
Cc1ccsc1/C=N/n1c(-c2ccccn2)n[nH]c1=S	9
COc1ccc(OCC2CNC(=O)O2)cc1 (centres undefined)	13
COc1ccccc1/C=C/CN1CCN(Cc2ccc(C)o2)C(CCO)C1 (centres undefined)	17
CCc1sc(NC(=O)c2cc3ccccc3oc2=O)nc1-c1cccs1	9
COc1ccccc1CCc1nnc(CCC(=O)NCCCOc2cccnc2)o1	18
COC(=O)C(NC(=O)c1c(C)nn(C)c1Cl)c1ccccc1 (centres undefined)	-18
C=CCSc1nc(N)cc(=O)[nH]1	22
Fc1ccc(-c2noc(-c3ccc4c(c3)CCO4)n2)cc1	28

Remaining list, next part
Structure	Biofilm kill mix
CCC1(C)Cc2sc3c(=O)[nH]c(=S)[nH]c3c2CO1 (centres undefined)	25
COc1cccc2cc(-c3ccnc(=S)[nH]3)oc12	2
O=C(COc1ccc(Cl)cc1)OCC(=O)N1CCCc2ccccc21	16
COc1cc(CC(NC(C)=O)C(=O)NC2CCN(c3c4c(nc5ncnn35)CCC4)CC2)cc(OC)c1 (centres undefined)	2
COc1cc(/C(C)=N/NC(=O)CSc2nnc(C)s2)ccc1O	29
CCN1CCN(C(=O)c2ccc(N3CC4CC(C3)c3cccc(=O)n3C4)c([N+](=O)[O-])c2)CC1 (centres undefined)	8
CCOC(=O)c1c(C)[nH]c(=S)c(C#N)c1-c1ccc(Cl)cc1	12
COc1cc2nc(CN(C)Cc3ccc(C(C)(C)C)cc3)[nH]c(=O)c2cc1OC	-1
O=C(N/N=C/c1ccncc1)c1cc([N+](=O)[O-])cc([N+](=O)[O-])c1	13
O=C(CNS(=O)(=O)c1ccccc1)Nc1cccc([N+](=O)[O-])c1	4
